Autofluor counter: flagged as autofluorescent in microsphere protease counterscreen; AID 624483; 360,000 compounds, 3.1% hits; compound autofluorescence counterscreen, microsphere flow cytometry; active compounds read high; fluorescence intensity (concentration not given with the values);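 active means at least 3 SD above the mean of all compounds, about 16000 in these data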;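 further: 100 nL of 1 mM stock went into each well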
Starred values were filed as active, the others as inactive.

No.	Structure	Autofluor counter
1	O=C1NC[C@@H](CCCCN2CCN(CCc3ccc(O)cc3)C(=O)C2=O)N(CC2CCCCC2)C1=O	6049
2	CC(=O)Nc1cc(-c2cccc(F)c2)cn2c(-c3ccccc3)cnc12	4087
3	CN1C2C=CC(=O)C1C1C(=O)N(c3ccccc3)C(=O)C12 (stereo unspecified)	5789
4	COc1ccc(CN2CCN(C(=O)Cc3ccccc3)CC2)cc1OC	3540
5	Cc1ccc(S(=O)(=O)NC(=O)C2(C)CCN2C(=O)c2ccccc2)cc1 (stereo unspecified)	3684
6	C[C@H]1CN([C@@H](C)CO)C(=O)CCCn2cc(nn2)CO[C@@H]1CN(C)C(=O)c1ccncc1	3819
7	O=C1NC(=O)C2(N1)C(=O)c1cccc3cccc2c13 (stereo unspecified)	3543
8	C[C@@H]1CN([C@H](C)CO)C(=O)c2cc(Br)cnc2O[C@@H]1CN(C)C(=O)CC1CC1	3856
9	COC(=O)C(Cc1c[nH]c2ccccc12)NC(=O)CCNC(=O)c1ccco1 (stereo unspecified)	3671
10	C[C@@H](NC(=O)[C@@H]1CCCN1C(=O)[C@@H]1CCCN1C(=O)c1ccc(Cl)cc1)c1ccccc1	5267
11	CCc1nc2ccc(C(=O)Nc3ccc(OC)c(OC)c3)cn2c1N(C)CCC(C)C	2776
12	Brc1ccc2nc(-c3ccco3)c(CC3CCCCC3)n2c1	4616
13	C[C@@H]1Cn2cnc(C(=O)Nc3ccc(CNC(=O)OC(C)(C)C)cc3)c2C(=O)N1	3112
14	COC(=O)C1=C(c2ccc(OCc3ccccc3)cc2)C[C@@H]2CC[C@H]1N2C(=O)NCc1ccc(F)cc1	3448
15	Cc1noc(C)c1-c1ccc(C(=O)NCc2cccs2)c2occc12	3490
16	O=C(OCc1cn([C@@H]2CN(CC3CCCCC3)[C@@H](c3ccc(Cl)cc3)C[C@H]2O)nn1)c1ccccc1	3801
17	CCC(=NNS(=O)(=O)c1ccc(C)cc1)c1ccccc1	3817
18	O=C(Nc1ccc(Cl)cc1)C1Cc2c(-c3cccc(F)c3)ccnc2O1 (stereo unspecified)	2994
19	COc1cccc(C(O)c2ncc(-c3ccccc3Cl)[nH]2)c1 (stereo unspecified)	3427
20	Fc1cccc(Cc2c(-c3ccco3)nc3c(Cl)cc(C(F)(F)F)cn23)c1	5987
21	C[C@@H]1CN([C@H](C)CO)C(=O)c2c(c3ccccc3n2C)-c2ccccc2CO[C@@H]1CN(C)S(=O)(=O)c1cccs1	2844
22	CCc1nc2ccc(C(=O)NCCN3CCNC3=O)cn2c1N(C)Cc1ccc(OC)cc1	3899
23	COc1ccc(CCN2CC(C(=O)NCc3ccon3)CCC2=O)cc1 (stereo unspecified)	3813
24	COC(=O)[C@@]1(Sc2ccc(OC)cc2)CC(=O)N[C@@H]1c1ccccc1	4344
25	CCCS(=O)(=O)NC(=O)C1(C)CCN(C(=O)c2ccc(OC)cc2)C1 (stereo unspecified)	2886
26	NC(c1csc(Nc2ccc(C(=O)c3ccccc3)cc2)n1)C1CCCCC1 (stereo unspecified)	3491
27	COC(=O)c1ccc(Cn2c(C)c(C(=O)NCc3cccs3)sc2=O)o1	3412
28	CCN(Cc1ccccc1)C(=O)c1cccs1	3571
29	CC(C)(C)c1ccc(C(=O)N2CCC2(C)C(=O)NS(=O)(=O)c2ccccc2Cl)cc1 (stereo unspecified)	3990
30	Cc1ccccc1-c1cnc(C(O)c2ccccc2)[nH]1 (stereo unspecified)	3710

Brought forward from above: seven entries, then new ones.
No.	Structure	Autofluor counter
24	COC(=O)[C@@]1(Sc2ccc(OC)cc2)CC(=O)N[C@@H]1c1ccccc1	4344
25	CCCS(=O)(=O)NC(=O)C1(C)CCN(C(=O)c2ccc(OC)cc2)C1 (stereo unspecified)	2886
26	NC(c1csc(Nc2ccc(C(=O)c3ccccc3)cc2)n1)C1CCCCC1 (stereo unspecified)	3491
27	COC(=O)c1ccc(Cn2c(C)c(C(=O)NCc3cccs3)sc2=O)o1	3412
28	CCN(Cc1ccccc1)C(=O)c1cccs1	3571
29	CC(C)(C)c1ccc(C(=O)N2CCC2(C)C(=O)NS(=O)(=O)c2ccccc2Cl)cc1 (stereo unspecified)	3990
30	Cc1ccccc1-c1cnc(C(O)c2ccccc2)[nH]1 (stereo unspecified)	3710
31	COc1cccc(-c2nc3nc(C)cc(C)n3c2NCc2ccccc2)c1	4510
32	CCc1nc2c(OCc3cccc(OC)c3)cccn2c1N(C)C(=O)C(C)C	4103
33	COc1ccc(OCCN2CCC(C(=O)NC(c3ccc(Cl)cc3)c3cccnc3)CC2)cc1 (stereo unspecified)	4022
34	Cc1[nH]c(C)c2c(=O)n(Cc3ccccc3Cl)ncc12	3696
35	Cc1cccc(S(=O)(=O)N(C)C[C@H]2OCc3cn(nn3)CCCC(=O)N([C@H](C)CO)C[C@@H]2C)c1	3910
36	O=C(O)C1CCN(S(=O)(=O)c2ccc3[nH]ccc3c2)CC1	3862
37	C[C@@H]1CN([C@H](C)CO)C(=O)CCCn2nncc2CO[C@H]1CN(C)Cc1cccnc1	3510
38	Cc1cc(C)cc(CC(=O)N2CCC2(C)C(=O)NS(=O)(=O)c2ccc(Cl)s2)c1 (stereo unspecified)	2967
39	Cc1ccc(C(O)c2ncc(-c3ccccc3Cl)[nH]2)cc1F (stereo unspecified)	3686
40	CN(C)CCCNc1nc2cc(-c3cnn(C)c3)sc2c(=O)n1C	2923
41	O=C(Nc1c(-c2ccccc2)[nH][nH]c1=O)c1ccco1	4482
42	CCCCCCn1c(=O)n2n(c1=O)[C@@H]1CN(S(=O)(=O)c3ccc(C)cc3)C[C@]1(O)[C@@H](OC(=O)NC1CC1)C2	4107
43	O=C1NC[C@H](Cc2ccccc2)N(C[C@@H]2CCCN2C[C@H](Cc2ccccc2)N2C[C@H](Cc3ccccc3)N(CCc3ccccc3)C(=O)C2=O)C1=O	4145
44	Cc1cccnc1C(NC(=O)C1CCN(Cc2ccccc2)CC1)c1ccc(F)cc1 (stereo unspecified)	2995
45	O=S(=O)(Nc1ccc(C(O)(C(F)(F)F)C(F)(F)F)cc1)c1ccc(Cl)c2nonc12	3819
46	Cn1c(=O)c2c(-c3ccccc3)n(-c3ccc(N)cc3)cc2n(C)c1=O	5255
47	CCCCCC(=O)N1C[C@H](n2cc(-c3ccc(F)cc3)nn2)[C@@H](O)C[C@@H]1c1ccc(C)cc1	3462
48	COC(=O)C1(C(=O)OC)C2C(=O)C3C(C21)C3(C(=O)OC(C)(C)C)C(=O)OC(C)(C)C (stereo unspecified)	3221
49	CCOC(=O)c1c(C)[nH]c(C(=O)OC(C)C(=O)NC2(C#N)CCCCC2)c1C (stereo unspecified)	3861
50	O=C1CCC(C(=O)N(CCO)Cc2ccccc2)CN1CCc1cccc(F)c1 (stereo unspecified)	3590
51	CC(=O)c1cccc(Nc2ccc(Br)cc2)c1	6103
52	O=C(NC1CCCC1)C1c2ccccc2OCC(=O)N1Cc1ccccn1 (stereo unspecified)	5598
53	CCNC(=O)C1(C)CCN(C(=O)c2cc(F)cc(F)c2)C1 (stereo unspecified)	3393
54	S=c1[nH]nc(NC2CCCCC2)s1	3742
55	CC(=O)Nc1ccc(-c2ccnc3c2CC(C(=O)Nc2cccc(OC(F)(F)F)c2)O3)cc1 (stereo unspecified)	3040
56	Cc1ccc(S(=O)(=O)Nc2ccc3c(c2)C(=O)c2ccccc2-3)cc1	6176
57	C[C@@H]1O[C@H](C2CCCC2)Cc2[nH]c(=S)[nH]c(=O)c21	5836
58	CNc1cncc(-c2cnn(CC(C)C)c2)n1	3376
59	COC(=O)c1ccc(NC(=O)CN2CCC(NC(=O)c3ccccc3F)CC2)cc1	3489
60	COc1ccccc1-c1ccc2c(c1)C(C)(Cc1ccc(Cl)c(Cl)c1)C(=O)N2 (stereo unspecified)	3443
61	c1cnc2ccc(-n3ccnc3)cc2c1	6059
62	COc1ccc(C(O)c2nc(-c3ccccc3)cs2)cc1 (stereo unspecified)	3688
63	CCc1nc2c(OCCOc3ccc(F)cc3)cccn2c1N(C=O)Cc1ccccc1	3737
64	O=C(CCc1ccc(O)cc1)NN=Cc1ccc2c(c1)OCO2	3470
65	Cc1ccccc1NC(=O)CSc1nccn1Cc1ccco1	2996
66	CC1(C)OC2CC3C4CCC5=CC(=O)C=CC5(C)C4(F)C(O)CC3(C)C2(C(=O)CO)O1 (stereo unspecified)	5663
67	COCCNc1nc(NCCN2CCNC2=O)c2sccc2n1	4170
68	CSc1cccc(NC(=O)CCCOc2cc(=O)n(C)c3ccccc23)c1	3642
69	COC(=O)C1=COC(OC2OC(CO)C(O)C(O)C2O)C2C(C)CC(=O)C12 (stereo unspecified)	5829
70	O=C(NCc1ccccc1)C1c2ccccc2OCC(=O)N1C1CC1 (stereo unspecified)	5463
71	CCc1nc2ccc(C(=O)Nc3cccc(OCC(=O)N(C)C)c3)cn2c1N(C)Cc1ccc(N(C)C)cc1	3471
72	COc1ccc(-c2n[nH]nc2C2=CC(=O)CC(C)(C)C2)cc1	2764
73	CC(=O)NC(c1cccc(F)c1)c1nc(-c2cc(F)cc(Cl)c2)cs1 (stereo unspecified)	3520
74	CCOc1cc(N2CCOCC2)c(OCC)cc1NC(=O)c1ccccc1N1CCCC1=O	3196
75	O=C(O)c1cccc2c1C(=O)c1cc([N+](=O)[O-])cc([N+](=O)[O-])c1-2	2726
76	CCCS(=O)(=O)NC(=O)C1(C)CCN(C(=O)Cc2cccc3ccccc23)C1 (stereo unspecified)	3997
77	CC1=C(C(=O)N(C)C)CC(CC(=O)NCC2CCCCC2)C(=O)N1CCC1=CCCCC1 (stereo unspecified)	3702
78	CCCCCCNC(=O)O[C@H]1Cn2c(=O)n(CCCCCC)c(=O)n2[C@@H]2CN(S(=O)(=O)c3ccc(C)cc3)C[C@]12O	4583
79	CCN(c1cccc(C)c1)S(=O)(=O)c1cc2[nH]c(=O)c(=O)[nH]c2cc1C	5989
80	CCCCN1C(=O)C(CC(=O)NC2CC2)CC(C(=O)N(CC)CC)=C1C (stereo unspecified)	3833
81	CC(C)(C)N1C(=O)c2c(C(=O)OCc3ccccc3)[nH]c(-c3ccccc3)c2C1=O	5798
82	CCCCC[C@H](C)N1C[C@H](COCc2ccccc2)Oc2cc(N3CC[C@@H](N(C)C)C3)ccc2S1(=O)=O	6051
83	C[C@H]1CN([C@@H](C)CO)S(=O)(=O)c2ccc(Br)cc2O[C@@H]1CN(C)C(=O)Nc1ccc2c(c1)OCO2	3512
84	CC(C)[C@H](CO)NC(=O)[C@H]1O[C@@H](n2ccc(N)nc2=O)[C@H](O)[C@@H]1O	6186
85	CN1OC[C@@H]2CN(S(=O)(=O)c3cccc(C(F)(F)F)c3)[C@H](c3ccc(-c4cc5ccccc5o4)cc3)C[C@@H]21	3763
86	CCOC(=O)[C@]12Cc3c(cc(OC)c(OC)c3OC)[C@H]1N(C)C(=O)c1cc(OC)ccc12	5633
87	c1ccc(CN(Cc2ccccc2)C(c2ccnc3ccccc23)c2nnnn2-c2ccc3c(c2)OCCO3)cc1 (stereo unspecified)	6027
88	COCCNC(=O)C1(C)CCCN(Cc2c(C)nn(-c3ccccc3)c2C)C1 (stereo unspecified)	3074
89	Cc1nn(C)c(C)c1/C=C(\C#N)S(=O)(=O)c1ccc(F)cc1	3609
90	Cc1ncoc1C(=O)NCC1=C(c2ccc3ccccc3c2)C[C@@H]2CC[C@H]1N2Cc1ccco1	3668

Quoted at random: 2 entries already listed.
No.	Structure	Autofluor counter
25	CCCS(=O)(=O)NC(=O)C1(C)CCN(C(=O)c2ccc(OC)cc2)C1 (stereo unspecified)	2886
1	O=C1NC[C@@H](CCCCN2CCN(CCc3ccc(O)cc3)C(=O)C2=O)N(CC2CCCCC2)C1=O	6049

Remaining list, next part:
No.	Structure	Autofluor counter
91	Cc1cccc(C(C)C)c1NC(=O)COC(=O)CCC(=O)N(CC(C)C)c1c(N)n(CC(C)C)c(=O)[nH]c1=O	3302
92	CCOC(=O)N(C)c1c(CC)nc2c(OCc3ccc(F)c(F)c3)cccn12	3482
93	O[C@H]1CN(Cc2cccs2)[C@@H](c2ccccc2)C[C@@H]1n1cc(-c2ccc(F)cc2)nn1	2871
94	O=c1ccn([C@@H]2O[C@H](CNCc3cccn3-c3ccncc3)[C@@H](O)[C@H]2O)c(=O)[nH]1	4430
95	COc1cc(/C=C/C(=O)O)cc(S(=O)(=O)Nc2cc(S(=O)(=O)N3CCCCC3)ccc2Cl)c1OC	3852
96	Cc1ccc(S(=O)(=O)NCc2ccccc2)cc1C(=O)N1CCN(S(=O)(=O)c2ccccc2F)CC1	3914
97	Cc1ccc(C)c(CC(=O)N2CCCC(c3cc(C(=O)NCc4cccnc4)no3)C2)c1 (stereo unspecified)	3897
98	C[C@@H]1CN([C@@H](C)CO)C(=O)CCCn2nncc2CO[C@@H]1CN(C)S(=O)(=O)c1ccc(C#N)cc1	3553
99	CCN(CC(=O)Nc1cccc(OC)c1)C(=O)C1CC(=O)N(Cc2ccccc2Cl)C1 (stereo unspecified)	3824
100	CS(=O)(=O)Nc1cccc(NC(=O)C2Cc3c(-c4cccc(F)c4)ccnc3O2)c1 (stereo unspecified)	3909
101	Cn1c(=O)c2cc(NC(=O)NCCc3ccccc3)ccc2n1Cc1ccccc1	3530
102	CC(=O)c1cccc(-c2cnc3c(NC=O)cc(-c4ccc(N5CCN(C)CC5)cc4)cn23)c1	3240
103	Cc1cc(C)cc(OCC(=O)NNC(=O)CC(C)c2ccccc2)c1 (stereo unspecified)	3451
104	COc1ccc(C(NC(=O)C2CCN(CCc3ccccc3)CC2)c2ccccn2)cc1 (stereo unspecified)	4169
105	CC(=O)NC(C)(c1ccccc1)c1nc(-c2ccc(F)c(Cl)c2)cs1 (stereo unspecified)	3856
106	NC(Cc1ccc(Cl)cc1)c1csc(NC(=O)Nc2ccccc2-c2ccccc2)n1 (stereo unspecified)	3231
107	CCCCn1c(O)c2n(c1=O)Cc1ccccc1N=C2c1ccc(C)cc1	5901
108	CCc1nc2c(OCc3ccc(C(F)(F)F)cc3)cccn2c1N(C)C(=O)CC(C)C	3825
109	Brc1cccc(-c2nc3c4ccccc4ccn3c2Cc2ccccc2)c1	6793
110	CC(=O)c1ccc(Cc2ccc(C(C)=O)s2)s1	2887

Screening data as filed in PubChem BioAssay.

This is a subset; rates above refer to the full screens.
